# Sa RN4220 lethal: kills Staphylococcus aureus RN4220; 330,000 compounds, 0.33% hits; AID 1259311; inhibition, % (no concentration beside the values); S. aureus RN4220 growth, OD600, 16 h;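 active = z-score of -3 or lower and OD600 up to 0.18 on both plates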;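 also: plate controls were untreated cells for no effect and reference antibiotic for full effect; stock transfer was 100 nL into about 80 µL; one replicate is shown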
# BJeLR lethal: BJeLR cell viability loss; BJeLR (HRASV12) viability, CellTiter-Glo ATP luminescence, 48 h; reference of the scale not given here; inhibition, % (no concentration beside the values); 300,000 compounds, 0.17% hits; AID 1554;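 active = replicate mean above 50%; inconclusive = above 50% but judged a plate artefact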;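 also: 50 nL library stock added to about 25 µL; numbers are from one replicate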
# PrP 5UTR inh: inhibition of PrP 5' UTR reporter expression | AID 488862 | 340,000 compounds, 0.35% hits | inhibition, % (no concentration beside the values) | cell-based PrP 5' UTR mRNA reporter, plate reader;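 active = every replicate at 50% or more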;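 also: 0 = median of the neutral control wells; tested in H4 reporter cells; numbers are from one replicate; inactives centre near -14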
# Autofluor counter: compound fluorescence in toxin protease inhibitor counterscreen; compound autofluorescence counterscreen, microsphere flow cytometry; stronger effect = higher value; fluorescence intensity (no concentration beside the values); 360,000 compounds, 3.1% hits; AID 624483;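 active = at least 3 SD above the mean of all compounds, about 16000 in these data; inconclusive = too few beads counted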;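 also: 100 nL of 1 mM stock went into each well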
# Mtb hypoxia rep: inhibitors of hypoxia-regulated fluorescent reporter in Mycobacterium tuberculosis; M. tuberculosis hypoxia-regulated fluorescent reporter, fluorescence; 300,000 compounds, 0.1% hits; fluorescence inhibition, % (concentration not given with the values); AID 1159583;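 active = 35 to 45% if threefold the growth effect, above 45% if 1.5-fold the growth effect; inactive = the rest, general growth blockers included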;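 also: wells of about 50 µL received 100 nL stock; 0% = vehicle wells and 100% = reference inhibitor wells; whole bacteria with a GFP reporter of the hypoxia response; strong numbers were not always called active; many hits fall short of the cut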
# ugtP null kill: kills S. aureus RN4220 lacking UgtP | S. aureus RN4220 ugtP deletion, OD600 growth, 16 h; some inactives read as strong as hits | growth inhibition, % (concentration not given with the values) | 330,000 compounds, 0.54% hits | AID 1259309;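 active = z-score under -3 and OD600 up to 0.15 on both plates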;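 also: plate controls were untreated wells for no effect and antibiotic for full effect; wells of about 80 µL received 100 nL stock; the first replicate is given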
# Mtb hypoxia rep growth: second read-out of Mtb hypoxia rep, no call of its own (marks repeat the call); growth inhibition, %; measured here: M. tuberculosis growth (absorbance);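 0% = vehicle and 100% = reference antibiotic; read after six days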
# * = called active by the depositor; ? = inconclusive; . = not tested or not shown.
SMILES,Sa RN4220 lethal,BJeLR lethal,PrP 5UTR inh,Autofluor counter,Mtb hypoxia rep,Mtb hypoxia rep growth,ugtP null kill
CC(C)c1nc(SCC(=O)c2ccccc2)c2c(=O)n(C)c(=O)n(C)c2n1,18,-8,-1,5374,3,7,2
Cc1cn(-c2cccnc2)c(C)c1CNC[C@H]1O[C@@H](n2cnc3c(N)ncnc32)[C@H](O)[C@@H]1O,2.9,.,-13,3619,-9,-1,0
COc1ccc(C(CNC(=O)c2ccc(C)c(S(=O)(=O)Nc3ccccc3OC)c2)N2CCCC2)cc1 (centres undefined),-2.5,-3,-3,9271,-3,7,5
CC(=O)N1N=C(c2ccccc2)OC1c1cccnc1 (centres undefined),15,7,-12,4005,13,3,6
Cc1cccc(N2C(=O)C(Cc3ccccc3)NC2=S)c1 (centres undefined),0.2,4,-19,2496,11,7,2
Cn1cnnc1SC(C(=O)Nc1cc(Cl)cc(Cl)c1)c1ccccc1 (centres undefined),-3.6,-4,-6,3565,7,8,-14
COc1cccc(CNC(=O)CCC2CCCN(C(=O)CCc3c(C)noc3C)C2)c1 (centres undefined),3.0,-1,-14,3213,8,5,3
COc1ccc(C2(O)CN(c3ccc(C)cc3)C3=[N+]2CCCC3)cc1 (centres undefined),-1.6,-8,-3,3368,2,-1,0
CN(C)S(=O)(=O)c1cccc(NC(=O)Cn2cnc3ccccc3c2=O)c1,0.5,-12,-24,11456,9,2,2
CCOC(=O)c1sc2nc(NC(=O)C3CC3)sc2c1C,2.8,3,-38,6005,7,7,-10
Cc1nnc(Sc2nc3c(c(=O)n(C)c(=O)n3C)n2Cc2ccc(Cl)cc2)s1,-1.9,0,-12,2360,2,2,-1
CCCCCCC1CCC(C(=O)NC(CCSC)C(=O)NC(C(=O)OC)C(C)C)CC1 (centres undefined),4.9,-3,-17,4202,3,3,-3
CC1CCN(c2ccccc2NC(=S)NC(=O)C(C)(C)C)CC1,-5.0,-2,-30,4450,5,-5,12
CCOCCCn1c(=S)[nH]c2cc(C(=O)N3CCC(C(N)=O)CC3)ccc2c1=O,-2.3,1,-9,?,3,3,1
CC1=C(C)CC(C(=O)Nc2cccc([N+](=O)[O-])c2)C(C(=O)O)C1 (centres undefined),5.4,-5,-19,2537,11,13,5
O=C(O)/C(=C\c1cccs1)c1ccc(F)cc1,1.4,-1,-10,3975,12,1,3
O=[N+]([O-])c1ccc(C2NS(=O)(=O)N=C3CCCCCN32)cc1 (centres undefined),3.6,-9,4,3985,0,-6,2
CCOC1OC(C(=O)N2CCN(Cc3ccc4c(c3)OCO4)CC2)=CC(c2ccccc2)C1CCCO (centres undefined),7.8,.,.,.,8,16,-17
Cc1ccc(S(=O)(=O)N2CCN(c3ncccn3)CC2)cc1C,.,-10,-5,4576,.,.,.
CC(=O)C1C(c2ccccc2)c2c(n[nH]c2C)CC1(C)O (centres undefined),1.1,3,-5,4777,.,.,2
O=C1/C(=C/c2ccncc2)SC(=S)N1C1CCS(=O)(=O)C1 (centres undefined),3.8,-17,-1,3845,16,23,-7
COc1cccc(Oc2ccc3nnc(C(F)(F)F)n3n2)c1,5.6,9,-11,3523,19,-1,0
S=C1NCN(Cc2ccco2)CN1c1ccccc1,2.2,-4,-6,6272,-14,-3,0
Cc1cccc(-n2cnc(C(=O)NC3CCCCCC3)c2)n1,3.5,8,7,2687,.,.,-2
CCCCN1C(=O)NC(NC(=O)c2ccco2)(C(F)(F)F)C1=O (centres undefined),5.5,-3,-11,5283,3,11,-7
Cc1ccc(C)c(C(=O)CCC(=O)O)c1,-1.9,3,-9,3662,8,-7,9
COc1ccc(C2CC(C(C)(C)C)=NN2c2ccc(S(N)(=O)=O)cc2)cc1 (centres undefined),-3.4,.,-11,3016,-7,-4,-3
NNC(=O)c1oc2ccccc2c1-n1cccc1,7.3,2,-22,5821,8,4,16
Cc1cc(C)n(NC(=S)NC2CCCCC2)c(=O)c1C#N,2.6,-3,-1,4795,-2,16,-5
COc1ccc([C@@H]2CC(=O)c3c(O)cc(O[C@@H]4OC(CO[C@@H]5OC(C)[C@H](O)[C@@H](O)[C@H]5O)[C@@H](O)[C@H](O)[C@H]4O)cc3O2)cc1O (some centres undefined),5.5,.,4,5608,.,.,1
CC(=O)Nc1ccc(C(=O)N/C(=C/c2ccccc2)C(=O)NCc2ccco2)cc1,3.2,-9,-17,5179,-2,-1,8
Cc1cccc(NC(=O)CCS(=O)(=O)c2cc3c(cc2Cl)NC(=O)CO3)c1,4.3,-2,-16,5521,-7,-1,8
CCC(C)c1ccc(NC(=S)NCc2ccccc2OC)cc1 (centres undefined),0.0,1,-15,4928,-7,1,16
CCn1c(=O)c2cc(C(=O)NC(C)C)sc2c2ccccc21,-0.4,2,-12,4792,7,2,7
Cc1noc(C)c1S(=O)(=O)N1CCC(C(=O)Nc2ccccn2)CC1,2.3,0,-24,4947,.,.,8
Cc1cccc(C(=O)NNc2ncnc3c2cnn3C)c1,-1.2,-3,-25,3942,0,9,4
COc1ccc(NC(=O)CSc2ccccc2)c(OC)c1,-11,-11,-79,2435,.,.,0
Cc1cccc(/C=N/NC(=O)c2ccc(F)cc2)n1,.,0,-30,3786,.,.,.
CC(/C=C/C1(O)C(C)CC(O)CC1(C)C)OC1OC(CO)C(O)C(O)C1O (centres undefined),4.6,4,-35,5193,.,.,-12
Cn1c(Cl)nc2c1c(=O)n(Cc1cccc(Br)c1)c(=O)n2C,8.2,.,5,20509*,10,6,7
CCCN1CCC(NC(=O)Nc2ccc(OC)c(OC)c2)CC1,-0.1,3,-19,7127,-5,-2,-2
CCc1ccc(-c2nc(CN3CCC(C(=O)NCCc4ccc(OC)c(OC)c4)CC3)c(C)o2)cc1,2.4,17,-10,10820,5,24,4
COC(=O)c1cc(OC)c(OC)cc1-n1cnc2cc(OC)c(OC)cc2c1=O,6.0,8,-47,6633,9,-5,6
S=c1[nH]nc(-c2cc(-c3ccccc3)n[nH]2)n1N=Cc1c2ccccc2cc2ccccc12,-2.9,.,.,.,3,4,-7
COc1ccccc1C1=NN(C(=S)Nc2ccccc2)C(c2ccco2)C1 (centres undefined),26,-4,-48,3461,-2,3,17

# Full records, looked up by structure. Screens in order: Sa RN4220 lethal	BJeLR lethal	PrP 5UTR inh	Autofluor counter	Mtb hypoxia rep	Mtb hypoxia rep growth	ugtP null kill
# Record of Cn1c(Cl)nc2c1c(=O)n(Cc1cccc(Br)c1)c(=O)n2C : 8.2	.	5	20509*	10	6	7
# Record of Cc1noc(C)c1S(=O)(=O)N1CCC(C(=O)Nc2ccccn2)CC1 : 2.3	0	-24	4947	.	.	8
# Record of CC(=O)Nc1ccc(C(=O)N/C(=C/c2ccccc2)C(=O)NCc2ccco2)cc1 : 3.2	-9	-17	5179	-2	-1	8
# Record of COc1ccc(NC(=O)CSc2ccccc2)c(OC)c1 : -11	-11	-79	2435	.	.	0
# Record of CCC(C)c1ccc(NC(=S)NCc2ccccc2OC)cc1 (centres undefined) : 0.0	1	-15	4928	-7	1	16

# More structures.
SMILES,Sa RN4220 lethal,BJeLR lethal,PrP 5UTR inh,Autofluor counter,Mtb hypoxia rep,Mtb hypoxia rep growth,ugtP null kill
Cc1ccc(-c2ccc([C@H]3[C@@H]4C=CCC[C@@]4(C)C(=O)N3Cc3ccccc3)c(F)c2)cc1,.,8,-10,3875,.,.,.
Cc1ccc(SCC(=O)N=C2NC(=O)CS2)cc1,-6.9,4,-16,3089,-8,2,-14
CC1CC(C)CN(C(=O)c2ccc(S(=O)(=O)N3CC(C)CC(C)C3)cc2)C1 (centres undefined),0.1,-4,-13,3397,15,13,6
O=C(O)CCN1C(=O)c2ccccc2C1=O,4.2,-2,-52,8928,6,6,10
CCOc1ncccc1C(=O)Nc1cccc(S(=O)(=O)N2CCCCC2)c1,5.6,.,-4,8769,-3,-3,-5
O=C(CC1NCCNC1=O)NC1Cc2ccccc2C1 (centres undefined),0.4,-2,-18,4501,5,5,1
CCOc1ccc(S(=O)(=O)NCC(=O)NC2CCCCC2)cc1,-2.1,.,-10,3865,20,12,-1
Cc1ccc(C(=O)COc2cc(C)nc3nncn23)cc1,4.2,-2,-9,4355,2,13,7
O=S(=O)(NC1CCCC1)c1cc(F)ccc1F,3.0,6,0,.,-6,-4,1
O=C(c1noc2c1CCCC2)N1CCCC(N2CCN(c3ccccc3F)CC2)C1 (centres undefined),1.6,4,6,5000,10,7,5
COc1ccc(NC(=O)CSc2nnc(N)s2)c([N+](=O)[O-])c1,6.3,1,-41,3213,9,2,4
CC(C)CC(=O)Nc1c2c(nn1-c1ccc(F)cc1)CSC2,1.0,-12,0,4431,6,2,5
Oc1c(Cl)cc(Cl)cc1C=NNc1ncc(Br)cn1,-3.9,.,.,.,-2,-3,-18
O=C(O)CCC(=O)N1CCC[C@H]1C(=O)O,.,-8,-28,5444,.,.,.
Cc1nn(C)cc1/C=N/NC(=S)Nc1ccccc1,.,0,-46,8626,.,.,.
O=C(O)c1ccc(-c2ccc(/C=C3\NC(=O)N(Cc4ccc(Cl)cc4)C3=O)o2)cc1,7.0,.,-14,4568,2,1,1
COCCN(C(=O)Nc1ccc(OC)cc1OC)C1CCN(C(C)=O)CC1,-13,2,-19,3026,6,6,-3
COc1cccc(-n2c(SCC(=O)OC(C)C)nnc2-c2cccnc2)c1,5.8,-5,-27,10042,3,7,5
COc1ccc(/C=C/C(=O)c2ccccc2)cc1Cn1nnc2ccccc21,10,0,-17,2642,5,0,-3
COC1=CC(=O)OC(C)(c2ccccc2)C1 (centres undefined),3.6,.,-17,3713,8,11,1
CCN(c1cccc(C(F)(F)F)c1)S(=O)(=O)c1ccc2c(c1)CCN2C(C)=O,21,-1,-2,5046,.,.,4
C/C(=N\NC(=O)CNC(=O)c1ccc2c(c1)OCCO2)c1ccco1,.,-7,-14,6068,.,.,.
CC(O)CCc1ccc(O)cc1 (centres undefined),3.0,-8,-13,2141,-3,4,4
Cc1ccc(S(=O)(=O)c2c[nH]c3cc4c(cc3c2=O)OCO4)cc1,4.7,-4,.,.,3,-7,3
O=C(COC(=O)/C=C/c1ccccc1)NCCNC(=O)COC(=O)/C=C/c1ccccc1,-1.3,0,-10,5815,0,0,9
CCCCC(CC)C(=O)Nc1cc(C(=O)NCCC)ccc1N1CCC2(CC1)CC(c1cccc(Br)c1)=NO2 (centres undefined),7.7,4,-1,3969,3,16,6
CCC(=O)N1CCc2cc(S(=O)(=O)N3CCN(c4ccccc4Cl)CC3)ccc21,4.5,-1,-19,5479,6,2,9
O=S(=O)(c1cc(C(F)(F)F)ccc1Cl)N1CCN(c2ccccn2)CC1,1.0,-25,-2,4810,18,8,7
CCc1nc2c(sc3nc4c(cc32)COC(C)(C)C4)c(=O)n1Cc1ccccc1,1.2,5,.,7988,5,5,5
COC(=O)Cn1c(=O)oc2ccc(C)cc21,1.5,-4,-20,4288,2,4,-3
Fc1ccc(Nc2nc(Oc3ccccc3F)nc(N3CCCC3)n2)cc1,-2.6,11,.,12307,10,16,53
CCSc1nn2c(=O)c3ccccc3nc2s1,5.6,4,-58,2991,14,0,1
C/C(Cc1ccccc1)=N\NC(=O)CNC(=O)c1ccc(Cl)cc1,.,-13,-15,4093,.,.,.
CCOC(=O)c1sc(N(Cc2ccccc2)C(=O)COC(=O)c2ccc(O)cc2)nc1C,18,0,-25,2656,6,5,23
COc1ccc(-c2ccc(=O)n(Cc3cccc(Cl)c3)n2)cc1,-1.4,3,-2,3020,6,-2,1
NS(=O)(=O)c1ccc(NC=C2C(=O)OC3(CCCCC3)OC2=O)cc1,-2.7,.,-8,16483*,0,0,-5
COc1cccc(-c2cc(C(=O)Nc3ccc(N(C)C(C)=O)cc3)c3cc(Br)ccc3n2)c1,-11,4,-22,3936,5,3,33
Clc1ccc(CNC2CCCC2)cc1,0.5,-8,-50,10163,7,7,1
COc1cc([N+](=O)[O-])ccc1-c1ccc(/C=N/NC(N)=O)o1,.,-1,-63,4968,.,.,.
Cc1ccc(C(=O)CC2(O)C(=O)N(C)c3ccccc32)o1 (centres undefined),5.3,5,-18,5833,11,6,7
Cc1nc2ccccc2c(=O)n1CCc1ccccc1,0.7,3,-16,3864,9,2,3

# Compound activity deposited in PubChem by several laboratories.
